KCNQ2 inh: KCNQ2 channel blockers in CHO-K1 cells – cell-based, FluxOR thallium flux, B-score, primary screen (AID 2156); B-score at 10 µM; 20 min; stronger effect = lower value; only compounds with negative scores are shown here; some inactives read as strong as hits; 310,000 tested, 1.1% active;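 active = fluorescence ratio B-score at most minus 3 library SDs, with starting brightness B-score within 2 library SDs, cut at about -5.5 in these data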
Target sequence (O88943 whole entry, looked up): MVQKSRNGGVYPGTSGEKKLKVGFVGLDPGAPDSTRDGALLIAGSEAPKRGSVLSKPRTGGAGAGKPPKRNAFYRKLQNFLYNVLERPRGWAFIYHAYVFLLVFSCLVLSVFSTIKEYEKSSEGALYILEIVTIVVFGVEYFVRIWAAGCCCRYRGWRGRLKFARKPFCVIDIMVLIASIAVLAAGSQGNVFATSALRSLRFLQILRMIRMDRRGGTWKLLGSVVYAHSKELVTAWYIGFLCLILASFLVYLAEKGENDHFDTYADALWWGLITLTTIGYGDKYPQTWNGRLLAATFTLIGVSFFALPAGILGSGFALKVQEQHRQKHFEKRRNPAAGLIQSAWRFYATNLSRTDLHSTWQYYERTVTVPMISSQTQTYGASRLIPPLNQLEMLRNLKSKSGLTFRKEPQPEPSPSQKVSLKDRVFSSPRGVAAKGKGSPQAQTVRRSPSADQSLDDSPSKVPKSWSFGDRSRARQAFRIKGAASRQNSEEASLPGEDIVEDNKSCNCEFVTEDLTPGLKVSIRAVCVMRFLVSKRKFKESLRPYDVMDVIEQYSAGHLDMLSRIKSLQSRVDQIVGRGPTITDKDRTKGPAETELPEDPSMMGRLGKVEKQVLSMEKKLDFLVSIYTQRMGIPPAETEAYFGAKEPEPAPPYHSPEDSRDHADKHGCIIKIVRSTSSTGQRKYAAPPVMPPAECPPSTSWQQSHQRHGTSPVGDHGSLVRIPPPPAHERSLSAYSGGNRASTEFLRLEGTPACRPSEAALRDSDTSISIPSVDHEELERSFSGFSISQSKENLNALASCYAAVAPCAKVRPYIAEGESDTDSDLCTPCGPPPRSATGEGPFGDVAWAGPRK
KCNQ2 inh baseline: further read-out of KCNQ2 inh, marked with its call; B-score; measured here: initial fluorescence intensity artifact check;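 brightness before thallium and not channel activity; 0 = typical well and far values either way flag optical interference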
An asterisk follows results filed as active; i = inactive.

Order of results – KCNQ2 inh | KCNQ2 inh baseline
CCc1ccc(OCC(=O)NNC(=O)c2cnccn2)c(Br)c1
  i | 0.55
COc1ccc(C(=O)Nc2cc(OC)c(Cl)cc2Cl)cc1
  i | -0.01
CC12CCC(C(=O)O)(c3nc4cc([N+](=O)[O-])ccc4nc31)C2(C)C (stereo unspecified)
  i | 0.38
C[C@@H]1C=C[C@](Cc2ccccc2)(C(=O)NCCc2c[nH]c3ccccc23)N1C(=O)c1ccccc1
  i | 1.3
COc1ccc(CNC(=O)c2sc(=S)n(-c3ccccc3)c2N)cc1
  i | 0.26
Cc1cccc(NC(=O)C2C(C(=O)O)C3C=CC2C32CC2)c1C (stereo unspecified)
  i | 0.02
Cc1ccc(-c2cc(C(=O)NCCCn3ccnc3)c3ccccc3n2)s1
  i | 1.9
COc1ccc(C2=CC(c3ccc(C)cc3)n3nnnc3N2)cc1 (stereo unspecified)
  i | 1.6
CCN(CC)CCn1c(=N)n(CCOc2ccccc2)c2ccccc21
  i | 0.39
N#Cc1c(NCCCO)nc(NCc2ccccc2)c2c1CCN(Cc1ccccc1)C2
  i | 1.8
O=C(Nc1ccc(NC(=O)c2ccc([N+](=O)[O-])cc2[N+](=O)[O-])cc1)c1ccco1
  i | -0.7
CCC1=C(OC(=O)N(CC)CC)N2C(=O)OC(=NCc3ccccc3)[C@]2(C)[C@H]2C1=CC[C@H]1C(=O)NC(=O)[C@H]12
  i | 1.2
CCc1cccc2c1NC(=O)C21N2CCCC2C(C(=O)c2ccc3ccccc3c2)C12C(=O)Nc1ccccc12 (stereo unspecified)
  i | -1.2
CO/N=C(/CS(=O)(=O)c1ccc(Br)cc1)c1ccc(OC)cc1
  i | -0.3
CC(=O)N(Cc1ccco1)C1(C(=O)NC2CCCCC2)CCCCC1
  i | -2.2
Cc1cc(C)n(C(=O)c2ccncc2)n1
  i | -1
COCC(=O)N(CCc1ccc(OC)c(OC)c1)Cc1cc2cc(C)ccc2nc1Cl
  i | -0.26
Cc1ccc(NC(=S)N(Cc2cccc(Br)c2)CC2CCC(C(=O)O)CC2)cc1 (stereo unspecified)
  i | -0.19
O=C(O)c1ccc(NNC(=S)Nc2cc(C(F)(F)F)ccc2Cl)cc1
  i | -0.15
O=C(NCc1ccccc1)C(c1cccnc1)N(C(=O)c1ccccn1)c1ccc(F)cc1 (stereo unspecified)
  i | -2.5
Cc1c(C)n(CCO)c2ncnc(Nc3ccc(F)cc3)c12
  i | -0.56
COc1ccc(CN2CC(C(N)=O)Oc3ccccc32)cc1F (stereo unspecified)
  i | -0.03
CC1CCC(C(=O)NC(C(=O)Nc2ccccn2)C(C)C)CC1 (stereo unspecified)
  i | -0.77
Cc1ccccc1C(=O)NC(CC(C)C)C(=O)OCC(=O)c1c(N)n(C)c(=O)n(C)c1=O (stereo unspecified)
  i | 0.29
CCN(CC)CCNCC(=O)N1c2ccccc2CCc2ccc(NC(=O)OC)cc21
  i | -0.14
CCOc1ccccc1C(=O)NCC(=O)NCCCc1ccccc1
  i | 0.4
CN1CCN(C(=O)c2cc(-c3ccco3)on2)CC1
  i | -0.06
O=C(CO/N=C/c1ccc(OC(F)F)cc1)NCc1ccc(F)cc1
  i | -0.47
Cc1ccccc1N1CCN(CCN2C(=O)CC(=C3c4ccccc4-c4ccccc43)C2=O)CC1
  i | 2
CCOP(=O)(OCC)C(Nc1cccc([N+](=O)[O-])c1)c1ccccc1 (stereo unspecified)
  i | 4.1

Quoted at random: 2 compounds from above
Order of results – KCNQ2 inh | KCNQ2 inh baseline
Cc1ccccc1C(=O)NC(CC(C)C)C(=O)OCC(=O)c1c(N)n(C)c(=O)n(C)c1=O (stereo unspecified)
  i | 0.29
CC1CCC(C(=O)NC(C(=O)Nc2ccccn2)C(C)C)CC1 (stereo unspecified)
  i | -0.77

Later entries:
Order of results – KCNQ2 inh | KCNQ2 inh baseline
Cc1ccccc1NC(=O)CCC(=O)OCC(=O)c1ccc(-c2ccccc2)cc1
  i | 0.59
C[C@@H](C(=O)Nc1ccc2ccccc2c1)[C@H]1C[C@]1(C)[C@H](NC(=O)c1cnccn1)c1ccccc1
  i | 0.55
CC1(C)CC(=O)C([N+](=O)[O-])=C(NCCCO)C1
  i | 2.3
Cc1ccc(NC(=O)COC(=O)Cc2ccsc2)cc1S(=O)(=O)N(C)C
  i | -0.59
CCC(OC(=O)CN1C(=O)C(=O)c2ccccc21)C(=O)Nc1ccccc1OC (stereo unspecified)
  i | -1
CCc1ccc(C(=O)CN2C(=O)C(C)N(c3ccc(C)cc3)C2=O)cc1 (stereo unspecified)
  i | 2.9
O=C(CSc1nnnn1-c1ccc(F)cc1)Nc1nc2ccccc2s1
  i | 0.69
CCn1c(C)nnc1SCC(=O)Nc1ccc(N2CCOCC2)cc1
  i | 0.85
O=C(NCCc1ccccc1C(F)(F)F)C1CCC(=O)N(C2CC2)C1 (stereo unspecified)
  i | -0.01
COc1ccc(C2c3c(ccc4ccccc34)Oc3ncn4nc(-c5ccco5)nc4c32)cc1 (stereo unspecified)
  i | 1.8
COC(=O)C(CCSC)NC(=O)CNS(=O)(=O)c1ccc(Cl)cc1 (stereo unspecified)
  i | -0.28
CC(=O)c1cnc2nc(C(F)(F)F)nn2c1C
  i | -0.71
COCCNC(=O)CN1C(=O)CSc2ncccc21
  i | 0.54
CN1CCN(c2ccc(NC(=S)NC(=O)c3cccc4c(Cl)cccc34)cc2)CC1
  i | 0.79
O=C(CCCCCNC(=O)c1ccccc1Br)N=Nc1c(O)[nH]c2ccccc12
  i | -0.27

The last 2 entries of the section above lead into the next.
Order of results – KCNQ2 inh | KCNQ2 inh baseline
CN1CCN(c2ccc(NC(=S)NC(=O)c3cccc4c(Cl)cccc34)cc2)CC1
  i | 0.79
O=C(CCCCCNC(=O)c1ccccc1Br)N=Nc1c(O)[nH]c2ccccc12
  i | -0.27
CC(C)Oc1ccc(C(=O)O)cc1
  i | -0.13
CS(=O)(=O)N1CCSC1c1ccc(Br)cc1 (stereo unspecified)
  i | 0.97
CCc1nc2sccc2c(=O)[nH]1
  i | -0.11
CCCn1nnnc1NCc1cccc(OC)c1
  i | -1.9
Cc1cccc(N2CCN(C(=O)c3nn(C)c4c3CS(=O)(=O)c3ccccc3-4)CC2)c1C
  i | 0.19
CC(C)(C)c1cc(CCC(=O)N2CCNCC2)c(C(C)(C)C)cc1O
  i | 1
O=C(NCc1ccccc1Cl)c1cc(C(=O)C2CC2)c[nH]1
  i | 0.57
CS(=O)(=O)N1CCCC(C(=O)Nc2ccc3c(c2)OCCO3)C1 (stereo unspecified)
  i | 0.17
O=C(NC(=S)N1CCOCC1)c1ccc([N+](=O)[O-])cc1
  i | 1.7
O=C1C=C(NCc2ccccc2)C2(CCCCC2)O1
  i | 0.14
Cc1ccccc1N1CCN(Cc2ccc([N+](=O)[O-])o2)CC1
  i | 4.8
Cc1ccc(-c2cc(C(=O)N3CCCC3)c3ccccc3n2)s1
  -5.9* | 2.5*
Cc1ccc(CN2CCN(/N=C\c3cccc([N+](=O)[O-])c3)CC2)cc1
  i | -0.02
Cc1ccc(/C=N/Nc2cc(C)nc(N3CCOCC3)n2)cc1
  i | 0.64
O=C1Nc2ccccc2C(O)(C(=O)N2CCCCC2)N1c1ccccc1 (stereo unspecified)
  i | -1.8
CCn1nc(C)c(C2C(C#N)=C(N)OC3=C2C(=O)CC(C)(C)C3)c1C (stereo unspecified)
  i | -0.3
Cc1ccc(OCC(=O)Nc2ccc(N3CCN(C(=O)c4ccc(C)cc4)CC3)cc2)cc1
  i | -0.72
O=C(c1ccc(Cl)cc1)N(Cc1ccccc1F)N1C(=O)CCCC1=O
  i | 1.2
CCNS(=O)(=O)c1ccc2c(c1)n(C)c(=O)n2C
  i | 1.3
CCC(C)[C@H](NC(=O)[C@H](Cc1ccccc1)n1c(=O)[nH]c2ccccc2c1=O)C(=O)N1CCC[C@@H]1C(=O)O (stereo partly specified)
  i | 0.78
C=CCNC(=O)/C(=C\c1ccco1)NC(=O)c1ccco1
  i | 0.08
Cc1ncc(CO)c(/C=N/NC(=O)c2ccccc2Br)c1O
  i | -0.02
Cc1ccc(C(=O)Nc2ccc3c(c2)OCCO3)c(C)c1
  i | -0.72
Cc1ccc(O)c(C(=O)c2cc(C(=O)NCCc3ccccc3)c(=O)n(CCc3ccccc3)c2)c1
  -7.1* | -2.4*
CC(c1cccs1)N(Cc1ccco1)C(=S)Nc1ccccc1Cl (stereo unspecified)
  i | 0.01
CN1C(=S)N(c2ccccc2)C(=O)/C1=C/c1cccs1
  i | 0.21
CCOC(=O)N/N=C(/C)c1cccc(-n2cnnn2)c1
  i | 0.04
O=C(Nc1ccccc1)Nc1ccc(Br)c(Cl)c1
  i | -0.77
O=C(CSC(=S)N1CCCC1)NCC(=O)Nc1ccc(F)c(F)c1
  i | 4.2
CC(=O)NC1CC2CCCC(C1)N2S(=O)(=O)c1cccc(F)c1 (stereo unspecified)
  i | 0.04

Taken from above.
KCNQ2 inh baseline, CCC(C)[C@H](NC(=O)[C@H](Cc1ccccc1)n1c(=O)[nH]c2ccccc2c1=O)C(=O)N1CCC[C@@H]1C(=O)O (stereo partly specified) : 0.78
KCNQ2 inh baseline, CC(=O)NC1CC2CCCC(C1)N2S(=O)(=O)c1cccc(F)c1 (stereo unspecified) : 0.04
KCNQ2 inh baseline, O=C(c1ccc(Cl)cc1)N(Cc1ccccc1F)N1C(=O)CCCC1=O : 1.2
KCNQ2 inh baseline, CC(c1cccs1)N(Cc1ccco1)C(=S)Nc1ccccc1Cl (stereo unspecified) : 0.01
KCNQ2 inh baseline, Cc1ncc(CO)c(/C=N/NC(=O)c2ccccc2Br)c1O : -0.02
KCNQ2 inh baseline, O=C(Nc1ccccc1)Nc1ccc(Br)c(Cl)c1 : -0.77
KCNQ2 inh baseline, CCOC(=O)N/N=C(/C)c1cccc(-n2cnnn2)c1 : 0.04

(continued)
Order of results – KCNQ2 inh | KCNQ2 inh baseline
CSc1ccc(Cl)c(C(=O)N(C)CC(=O)Nc2ccc(N3CCOCC3)cc2)c1
  i | 0.47
COc1ccc(-n2nc3c(c2NC(=O)COc2ccccc2)CS(=O)C3)cc1 (stereo unspecified)
  i | 0.59
COc1ccc(-n2c(SCC(=O)O)nc3sc4c(c3c2=O)CCC4)cc1
  i | 0.89
Cc1nn(Cc2cccc(F)c2)c(C)c1NC(=O)c1ccc(COc2ccccc2Cl)cc1
  i | -0.62
CC1Nc2nc(NC(=O)C(C)(C)C)[nH]c(=O)c2N(C)C1C (stereo unspecified)
  i | 1
CC1CCC2(CC1)NC(=O)N(Cc1nnc(-c3cccs3)o1)C2=O (stereo unspecified)
  i | 0.28
COc1ccc(C(=O)NNC(=O)C2CCN(S(=O)(=O)c3ccc(C)cc3)CC2)cc1
  i | 1.2
COc1cccc(/C=C/C(=O)NNC(=O)c2cc(C)oc2C)c1
  i | -0.01
Cc1nc2ccc(Br)cc2c(-c2ccccc2)c1C(=O)O
  i | 9
COc1ccc(/C=C2\SC(=S)N(CCCC(=O)N3CCOCC3)C2=O)cc1
  i | 0.38
COc1ccc(N=C2NN=C(c3ccc4c(c3)OCCO4)CS2)cc1
  i | -0.58
Cc1csc(SCC(=O)Nc2nncs2)n1
  i | -3.3
O=C(NC1CCCCC1)C(c1cccnc1)N(C(=O)c1ccc(Cl)nc1)C1CCCCC1 (stereo unspecified)
  i | 0.04
COc1ccc(C(=O)NC2CCN(CC(=O)NCc3ccccc3F)CC2)cc1
  i | -1.2
Cc1noc(C)c1COC(=O)C(c1ccccc1)c1ccccc1
  i | 0.26
COc1ccc(C2Nc3ccccc3C(=O)N2Cc2ccccc2)cc1Cn1nnc2ccccc21 (stereo unspecified)
  i | 1.7
COc1cc([N+](=O)[O-])ccc1NC(=O)Oc1ccc(NC(C)=O)cc1
  i | -1.7
CCCOc1ccccc1NS(=O)(=O)c1ccc2[nH]c(=O)[nH]c2c1
  i | -0.04
CCOc1ccc(Cl)cc1S(=O)(=O)N1CCC(C(=O)NCc2cccnc2)CC1
  i | 1.5
CN1CCN(c2ccccc2NC(=O)c2ccc(-c3ccccc3)cc2)CC1
  i | 0.83
CCC(C)N1C(=S)SC(C)(C)C1N(O)C(=O)NC1CCCCC1 (stereo unspecified)
  i | 1.6
CCN1CCN(CCNC(=O)c2ccc3c(c2)N(Cc2ccc(F)cc2)C(=O)c2ccccc2S3=O)CC1 (stereo unspecified)
  i | -2.7
Cc1cc(CNC(=O)c2cc(-c3ccccc3)nc3ccccc23)nn1C
  i | -1.2
S=C(Nc1ccccc1)Nc1nc2ccccc2n1CCOc1ccc(Br)cc1
  i | 0.49
CCOC(=O)c1ccccc1NC(=O)COC(=O)C1CCCC1
  i | 1.9
O=C(N/N=C/C(Cl)=C/c1ccccc1)c1ccccc1F
  i | -1.5
CC(C)CNS(=O)(=O)c1cc(C(=O)OC2CCOC2=O)c(Cl)cc1Cl (stereo unspecified)
  i | -1.5
N#C/C(=C(/O)CCl)c1nc(-c2ccccc2)cs1
  i | 1.6
Cc1cc(O)c(/C=N/Nc2ccccc2Cl)c(=O)o1
  i | 0.08
CC(=O)c1ccc(NC(=S)NNC(=O)c2ccccc2[N+](=O)[O-])cc1
  i | -0.47
O=C(CN1C(=O)c2ccccc2S1(=O)=O)Nc1ncc([N+](=O)[O-])s1
  i | 0.04
CN1C2CCC1CC(NC(=O)c1ccc([N+](=O)[O-])cc1)C2 (stereo unspecified)
  i | 2.4
COc1ccc(CNC(=O)COc2ccc(F)cc2)cc1
  i | -0.42
CCCCN(CC)CCNC(=O)Cn1cnc2sc(C)c(S(=O)(=O)N3CCC(C)CC3)c2c1=O
  i | 0.67
C=CCNC(=O)C1CC1(c1ccc(C)cc1)c1ccc(C)cc1 (stereo unspecified)
  i | -1.2
CCn1ccnc1CN(C)Cc1cn(-c2ccc(C)cc2)nc1-c1cccc(C)c1
  i | 1.5
CCCCN(C)C(=O)c1cn(-c2cccc(OC)c2)c(=O)c2ccccc12
  i | -0.01
COc1ccc(NCC(O)Cn2cnc3c2c(=O)n(C)c(=O)n3C)cc1 (stereo unspecified)
  i | -4.3

Assay outcomes as filed in PubChem.

Some of the compounds tested; the hit share may differ from the screen's.
